# HPGD block: inhibitors of human 15-hydroxyprostaglandin dehydrogenase (HPGD); purified HPGD, NADH fluorescence kinetic, PGE2 substrate; Potency, µM, inactives show at the top dose activity change, negative = inhibition, usual class: inhibitors; actives 4.3% (n = 150,000); active = well fitted inhibition curve with a large enough effect (not every such curve was filed as active); inconclusive = small, poorly fitted or top-dose-only effect, or another doubt; inactive = no such curve, though single readings can be large or run the other way;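 also: top concentration of the series not given in the record; plate controls included wells without enzyme; inactives centre near -10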
# Target sequence (P15428 whole entry, looked up): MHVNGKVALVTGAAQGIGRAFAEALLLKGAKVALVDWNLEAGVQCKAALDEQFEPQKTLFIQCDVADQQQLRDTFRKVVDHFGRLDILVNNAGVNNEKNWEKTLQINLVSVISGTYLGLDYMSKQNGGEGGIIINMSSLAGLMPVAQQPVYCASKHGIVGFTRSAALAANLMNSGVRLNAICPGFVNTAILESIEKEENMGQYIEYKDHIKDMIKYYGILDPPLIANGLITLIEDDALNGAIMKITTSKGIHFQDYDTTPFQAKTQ
#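 NADH formation kinetics: reaction with 30 uM PGE2 and 1 mM NAD+ (final), 20 nM enzyme, Tris-HCl pH 8 with Tween 20, after 15 min compound preincubation at room temperature. Fluorescence change, last versus first of five reads.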
# The depositor's hits bear a star; ? = inconclusive; [ ] = remark or other dose. % is scaled to controls: 0 for no effect and ±100 for the full control effect; potency is read from the fitted curve at half-maximal effect. Only part of the results is shown; the hit share may differ from the screen's.
# Start of the data: the first 5 records as a preview:
HPGD block | SMILES
-19% | COC(=O)c1ccc(OCC(=O)c2ccccc2)cc1
-8% | CCCCOC(=O)Cn1c(=O)n(CC(=O)OCCCC)c2ccccc21
-8% | CCCCC/C=C\C/C=C\CC1OC1C/C=C\CCCC(=O)O (stereo not given)
-3% | CCCCc1nc2c(c3c1C[C@H](C)OC3)CN(C(=O)Nc1ccc(OC)cc1)CC2
-21% | COC(=O)c1ccccc1NC(=O)Nc1ccc(C(=O)N2CCCC2)cc1

# The listing, from the first entry:
HPGD block | SMILES
-19% | COC(=O)c1ccc(OCC(=O)c2ccccc2)cc1
-8% | CCCCOC(=O)Cn1c(=O)n(CC(=O)OCCCC)c2ccccc21
-8% | CCCCC/C=C\C/C=C\CC1OC1C/C=C\CCCC(=O)O (stereo not given)
-3% | CCCCc1nc2c(c3c1C[C@H](C)OC3)CN(C(=O)Nc1ccc(OC)cc1)CC2
-21% | COC(=O)c1ccccc1NC(=O)Nc1ccc(C(=O)N2CCCC2)cc1
-20% | CCOC(=O)c1sc(NCc2ccco2)c(-c2nc3ccccc3s2)c1N
5% | COc1ccc(CCNC(=O)CN(c2ccc(OC)c(OC)c2)S(C)(=O)=O)cc1OC
-5% | CCC(C)(C)NC(=O)CN(Cc1cccs1)C(=O)CCC(=O)Nc1nccs1
? | O=S(=O)(Nc1cccc(-c2cn3cccnc3n2)c1)c1ccc(F)cc1
-5% | Cc1ccc(S(=O)(=O)NNC(=O)c2sc3nc(C)cc(C)c3c2-n2cccc2)cc1
-17% | Cc1ccc(OCc2nc(-c3ccccn3)n[nH]2)cc1
-8% | COC/C=C/C1=CC2=CC(=O)C(C)(OC(=O)CCC(=O)OC)C(=O)C2=CO1 (stereo not given)
-3% | CC(C)Cn1c(CN2CCCCC2C)nc2c1c(=O)n(C)c(=O)n2C (stereo not given)
-8% | O=C(Cn1cc(C(=O)C2CC2)c2ccccc21)NC1CCCC1
-5% | CCCCOc1ccc(C(=O)Nc2cccc(C)n2)cc1
? | CC(/C=C1\SC(=S)N(NC(=O)c2ccc(O)cc2)C1=O)=C\c1ccccc1
-7% | CCCN(CCC)S(=O)(=O)c1ccc(C(=O)Nc2nnc(CSC)o2)cc1
-13% | CCOC(=O)C(C)Sc1nc2ccccc2c(=O)n1CC1CCCCC1 (stereo not given)
-1% | CCc1nnc(NC(=O)CCC(=O)NC2CCCc3ccccc32)s1 (stereo not given)
-2% | CCC(=O)N1CCN=C1SCc1ccccc1

# Reformatted as tab-separated lines: part of the list above.
SMILES	HPGD block
CCCCc1nc2c(c3c1C[C@H](C)OC3)CN(C(=O)Nc1ccc(OC)cc1)CC2	-3%
CC(C)Cn1c(CN2CCCCC2C)nc2c1c(=O)n(C)c(=O)n2C (stereo not given)	-3%
CCCCOC(=O)Cn1c(=O)n(CC(=O)OCCCC)c2ccccc21	-8%

# Remaining list, next part.
HPGD block | SMILES
-3% | Cn1cccc1C(=O)N1CCC[C@@]2(CCN(C(c3ccccc3)c3ccccc3)C2)C1
35µM* | COc1ccc2c(c1OC)C(=O)N1c3ccccc3N=C(c3ccc([N+](=O)[O-])cc3)CC21 (stereo not given)
-11% | CN1c2ccsc2C(O)=C(C(=S)Nc2ccccc2)S1(=O)=O
-26% | O=C(Nc1cccc(O)c1)C1CCCN1C(=O)OCc1ccccc1 (stereo not given)
-6% | C[C@]1(OC(=O)/C=C\c2ccccc2)C[C@@H](O)[C@@]2(O)C=CO[C@@H](O[C@H]3O[C@@H](CO)[C@@H](O)[C@@H](O)[C@@H]3O)[C@H]21
-16% | COCCNC(C(=O)Nc1ccc([N+](=O)[O-])cc1Br)c1ccccc1 (stereo not given)
-4% | O=C(NCCc1ccccc1F)[C@@H]1CSC2c3ccccc3C(=O)N21 (stereo not given in full)
-6% | CC1(C)CC(=O)c2cc(C(=O)N3CCN(CCO)CC3)c(=O)n(-c3ccc(Cl)cc3)c2C1
? | O=C(COC(=O)/C=C/c1nc2ccccc2s1)Nc1ccccc1Oc1ccccc1
? | Cc1ccc(/C=C/c2nnc(-c3cccc(C)c3)o2)cc1
-7% | Cc1ccc(/C(O)=C2\C(=O)C(=O)N(Cc3cccnc3)C2c2ccccc2[N+](=O)[O-])cc1 (stereo not given)
-21% | O=C(NCC1CCCO1)c1cccc(N2C(=O)C3C4C=CC(C4)C3C2=O)c1 (stereo not given)
? | C=CCn1c(SCc2ccc(C(=O)Nc3ccccc3)cc2)nnc1-c1ccccc1
-14% | CCn1c(=O)cc(SCC(=O)N2CCN(c3ccccn3)CC2)c2ccccc21
-15% | CCOc1ccccc1NC(=O)C(Sc1ccccc1)c1ccccc1 (stereo not given)
64%[activator] | N#C/C(C(=O)Oc1ccccc1)=C1/Nc2ccccc2-c2ccccc21
-11% | Cc1ccc2cc(CNC(C)(C)C)c(=O)[nH]c2c1
-15% | CCC(=O)c1ccccc1OCCSc1nc(C)cc(=O)[nH]1
-11% | Cc1cc(C)cc(OC(=O)N2CCOCC2)c1
-19% | O=C(Nc1ccc(N2CCN(C(=O)c3ccc(Cl)cc3)CC2)cc1)c1ccc2c(c1)OCCO2

# Another view of six compounds above.
Molecule	HPGD block
Cn1cccc1C(=O)N1CCC[C@@]2(CCN(C(c3ccccc3)c3ccccc3)C2)C1	-3%
COc1ccc2c(c1OC)C(=O)N1c3ccccc3N=C(c3ccc([N+](=O)[O-])cc3)CC21 (stereo not given)	35µM*
CN1c2ccsc2C(O)=C(C(=S)Nc2ccccc2)S1(=O)=O	-11%
O=C(Nc1cccc(O)c1)C1CCCN1C(=O)OCc1ccccc1 (stereo not given)	-26%
C[C@]1(OC(=O)/C=C\c2ccccc2)C[C@@H](O)[C@@]2(O)C=CO[C@@H](O[C@H]3O[C@@H](CO)[C@@H](O)[C@@H](O)[C@@H]3O)[C@H]21	-6%
COCCNC(C(=O)Nc1ccc([N+](=O)[O-])cc1Br)c1ccccc1 (stereo not given)	-16%

# Continued.
HPGD block | SMILES
? | O=C(CCc1ccc(O)cc1)c1c(O)cc(O)cc1O[C@@H]1O[C@H](CO)[C@@H](O)[C@H](O)[C@H]1O
? | O=C(NC(=S)NNS(=O)(=O)c1ccccc1)c1ccc([N+](=O)[O-])cc1
-8% | CCC(=O)N1CCN(c2ccc(NC(=O)c3cccs3)cc2)CC1
-10% | CCN1C(=O)Cc2cc(S(=O)(=O)N3CCOCC3)ccc21
-13% | COC(=O)/C=c1/s/c(=C(/C#N)C(=O)N2CCCCC2)n(-c2ccccc2)c1=O
-12% | O=C(CCN1C(=O)C2C3C=CC(C3)C2C1=O)Nc1nccs1 (stereo not given)
? | Clc1ccc(Oc2ncnc3oc(-c4ccccc4)cc23)cc1
-5% | CCCCCCCC(=O)OC(CN1CCCCC1)CN1CCCC1=O (stereo not given)
-12% | Cc1ccc(S(=O)(=O)N2CCN(c3ccc([N+](=O)[O-])c(NCCN4CCOCC4)c3)CC2)cc1
-30% | Cc1ccc(-c2nn3c(C)nnc3c3ccccc23)cc1S(=O)(=O)NCCN1CCOCC1
? | COc1cccc(Nc2ncnc3c2cnn3-c2cccc(C)c2)c1
-10% | CC(C)COc1ccc(/C=C2/Sc3ccccc3C2=O)cc1
-3% | Cc1c(Cl)c(S(N)(=O)=O)cc2c1=NC=NS=2(=O)O
-17% | Cc1noc(C)c1COc1ccc(C(=O)OCC(=O)Nc2ccc3ccccc3c2)cc1
-25% | CCOc1ccc(OCCSc2nc3ccccc3c(=O)[nH]2)cc1
-5% | CCN(c1cccc(C)c1)S(=O)(=O)c1c(C)[nH]c(=O)[nH]c1=O
1% | CN(C)CCNC(=O)NC(=O)c1ccc(Cl)cc1
-17% | O=C(CCC(=O)NC1CC1)Nc1nnc(C2CCCCC2)s1
-4% | CC1(Cc2ccc3c(c2)OCO3)NC(=O)NC1=O (stereo not given)
-16% | Cn1c(=O)n(C)c2cc(NC(=O)c3cc4ccccc4o3)ccc21
-6% | Cn1c(CNc2ccc(Cl)cc2)nc2ccccc21
-9% | O=C(Nc1ccccc1N1CCOCC1)c1ccccc1NS(=O)(=O)c1ccc(F)c(F)c1
-1% | COc1ccc(S(=O)(=O)N2Cc3ccccc3CC2C(=O)Nc2ccc(O)cc2)cc1OC (stereo not given)
? | CCOc1c2ccc(C(=O)NCC34CC5CC(CC(C5)C3)C4)cc2nn1CC
-10% | CSc1ccc(S(=O)(=O)NCc2ccc(C)cc2)cc1
-27% | Cc1cc2nc(-c3ccc(NC(=O)C(C)C)cc3)oc2cc1C
? | COc1cccc(C(=O)/C=C/Nc2ccc(S(=O)(=O)Nc3cccc(C(C)=O)c3)cc2)c1
-6% | CCOC(=O)C1CCCN(Cc2nc(N)nc(Nc3ccc(Cl)cc3)n2)C1 (stereo not given)
-10% | c1ccc(C2[C@H]3CN(CC4CCCCC4)[C@H](c4ccccc4)C34CC2(c2ccccc2)C4)cc1 (stereo not given in full)
28µM* | O=C1c2ccccc2C(=O)c2c1ccc(O)c2O
? | O=C1c2cccc3cccc(c23)C(=O)N1OS(=O)(=O)c1ccccc1
? | COC(=O)c1cc(NC(=O)/C=C/c2ccc3c(c2)OCO3)cc(C(=O)OC)c1
? | CCOC(=O)c1cc2c(s1)-c1c(C)cccc1OC2
-15% | Cc1cc(Oc2ccc(-c3ccccc3)cc2)n2ncnc2n1
0.4µM* | COC(=O)c1ccc(CCc2cc(O)ccc2O)cc1
-18% | O=C(CNC(=O)c1ccco1)NCC(=O)OCc1ccccc1Br
-13% | COc1ccc(CCN2C(=O)C(Oc3ccccc3C)C2c2ccc3c(c2)OCO3)cc1OC (stereo not given)
? | COc1ccc(N2CCC(CNC(=O)Nc3ccccc3)C2)cc1 (stereo not given)
-9% | CN1CCN(c2cc(=O)n(C3CCCCC3)c(=O)[nH]2)CC1
-15% | Nc1c(-c2ccccc2)c(CSc2nc3ccccc3[nH]2)nn1-c1ccc(Cl)cc1
-6% | Cc1ccc(SCc2cc(=O)n3[nH]cnc3n2)cc1
-4% | CC(=O)c1cccc(NC(=O)Nc2ccc3c(c2)N(C)C(=O)CS3)c1
-3% | CCN1C(=O)CC(C(=O)Nc2ccc(F)cc2)SC1=Nc1cccc(OC)c1 (stereo not given)
-2% | CCOC(=O)C1CCN(C(=O)C2CCCCC2)CC1
-1% | Cc1ccc(C(=O)N2CC(=O)Nc3ccc(F)cc3C2c2ccccc2)cc1[N+](=O)[O-] (stereo not given)
-6% | O=C(CSc1nnc(Cc2cc(=O)[nH]c(=O)[nH]2)n1-c1ccc(F)cc1)N1CCCCC1
? | COc1ccc(CC(=O)Nc2cc3oc4ccccc4c3cc2OC)cc1
? | CCCCCCNC(=O)c1c(O)c2cccc3c2n(c1=O)CCC3
-27% | CCCCn1[nH]c(-c2ccccc2)cc1=O
3% | CCC(=O)Nc1ccc2c(c1)ncn2-c1ccccc1
? | NC(=O)CSc1nc2sc(-c3ccccc3)cc2c(=O)n1N
-8% | CC(C)Oc1ccccc1-c1nc(SCC(=O)O)n[nH]1
-22% | COc1cc(C(=O)Nc2ccc(Cl)c(C(F)(F)F)c2)cc(OC)c1OC
-14% | Fc1ccc(NC(=S)NCCc2ccc(Cl)cc2)cc1
-9% | Cc1nn(C)cc1C(C(=O)NC1CCCCC1)N(C(=O)Cn1nnc2ccccc21)c1ccc(F)cc1 (stereo not given)
? | C=C(C)CN(CC)c1nc(N)c2c(N)nc3c(c2c1C#N)CC(=O)N3C12CC3CC(CC(C3)C1)C2
7.1µM* | COc1ccc(CCN2CC(C#N)=C3c4cc(OC)c(OC)cc4CCN3C2)cc1OC
2% | CCn1nc(C)c(NC(=O)/C=C/c2cnn(C)c2)c1C
-15% | Cc1nc2ccccc2c(=O)n1/N=C/c1cn(-c2ccccc2)nc1-c1cccs1
0% | O=C(NCc1ccco1)C1CN(S(=O)(=O)c2ccccc2)CCN1S(=O)(=O)c1ccccc1 (stereo not given)

# Next section.
HPGD block | SMILES
-5% | CCCOC(=O)C1[C@H]2C(=O)N(CCCOC)C[C@]23C=C[C@H]1O3 (stereo not given in full)
? | Cc1cccc2cc(C#N)c(SCC(=O)N3CCC(C)CC3)nc12
-24% | CCOC(=O)c1ccc(Nc2c(CC)c(C)nc3ncnn23)cc1
-7% | O=C(NC(=S)Nc1cc(Cl)ccc1N1CCOCC1)c1ccc(-c2cccc(Cl)c2)o1
-11% | COC(=O)c1nc(-n2nc(C)cc2C)ccc1Cl
-12% | Cc1cc(NC(=O)CSCc2nc(-c3cccc(F)c3)oc2C)no1
-17% | CCN(CC)C(=O)CCC(=O)Nc1ccc(C(=O)OC)cc1
-25% | CC1(C)SC2C(NC(=O)C(N)c3ccccc3)C(=O)N2C1C(=O)O (stereo not given)
4% | C1=CN2CCC1C(c1ccccc1)C2 (stereo not given)
-3% | Cc1nn(C)cc1C(C(=O)NC1CCCCC1)N(C(=O)c1cnccn1)c1ccc(Oc2ccccc2)cc1 (stereo not given)
-12% | C=CCNC(=O)c1cccc(C(F)(F)F)c1
? | Cc1cccn2c(=O)c(/C=N/O)c(N3CCCC3)nc12
-8% | Cc1nn(C)c(Oc2ccccc2)c1[N+](=O)[O-]
-4% | Cc1ncoc1C(=O)Nc1cccc(Cl)c1C
-12% | Cc1ccc(-c2nnn(CC(=O)N3CCC(C)CC3)n2)o1
-15% | COc1cc2c(cc1OC)C(c1cccs1)CC(=O)N2 (stereo not given)
-6% | CCCc1cc(=O)[nH]c(SCC(=O)c2c(N)n(C)c(=O)n(C)c2=O)n1
-8% | CCOc1ccc(NC(=O)c2ccccn2)cc1
? | CC(=O)Nc1nonc1-n1nnc(C(=O)NCc2ccccc2)c1C
-8% | COc1ccc(-c2cc(C(F)(F)F)nc(SCC(=O)Nc3ccc4c(c3)OCO4)n2)cc1
-13% | CCOC(=O)c1sc(N/N=C/c2cccc(C)c2)nc1C
-5% | CN(C)CCCNCCCNC(=O)c1ccncc1
-14% | Clc1ccc(Cn2nnc(-c3ccccc3)n2)cc1
-3% | Nn1c(COc2cccc(Cl)c2)nc2ccccc2c1=O
-7% | COc1ccc(C(=O)N2CCN(c3ccc(C)cc3C)CC2)cc1OC

# Assay outcomes (PubChem BioAssay)
